Assay outcomes from PubChem BioAssay.
GALR2 agonist = GALR2 receptor agonists, primary screen, cell-based; 0.48% of 140,000 active; Galanin receptor type 2 (Homo sapiens), O43603; GALR2-expressing cells, agonist activation read-out; activation, %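 (tested at 5 µM)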;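 active = above mean plus 3 SD of all compounds, about 5% in these data, not always enough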;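 also: 0% = vehicle buffer wells and 100% = reference agonist at full effect; tested in CHO reporter cells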
RGS16-Gao = modulators of RGS16 binding to Galphao, primary screen, biochemical, human proteins, multiplexed bead flow cytometry; Regulator of G-protein signaling 16 (Homo sapiens) + Guanine nucleotide-binding protein …; bead-based flow cytometry RGS16-Galphao binding, fluorescence; actives lie on both sides; binding response (% of control), % at 10 µM; 0.38% of 220,000 active;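 active = below 25% or above 175%, edge rows of some plates excepted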;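 also: Galphao activated by GDP with aluminum fluoride before binding; 100% = wells without compound and 0% = beads without RGS; some results beyond the cut were filed as inactive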
HSV replic up = enhancers of HSV replication in host cells, fold increase, host cell viability. maximum fold increase. 0.005% of 220,000 active. HSV replication augmentation in cells. AID 1956, 2009;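 active = peak rise of 1.5-fold or more in the series; tested in PC3 cells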;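 also: first round at 10 µM; read as green reporter fluorescence; hits show the peak of a series up to 25 µM; 1 = signal of infected wells without compound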
INS promoter inh = inhibitors of insulin promoter-driven GFP, primary screen, imaging, TRM-6 cells (human fetal islet line), eGFP reporter, cell count | reporter expression induced with tamoxifen | inhibition, % at 2 µM | 0.9% of 130,000 active;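 active = inhibition above the mean plus 3 SD, with well images judged a real hit on visual review, cut at about 60% in these data, passing the limit was not always enough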
PKD1 kinase inh = inhibitors of human PKD1 kinase, biochemical, fluorescence polarization; Serine/threonine-protein kinase D1 (Homo sapiens), Q15139; PKD1 kinase fluorescence polarization assay; inhibition, %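 (about 10 µM by stock and volumes)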; 0.056% of 200,000 active;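 active = inhibition of 50% or more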;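 also: controls were vehicle for no effect and a reference inhibitor for full effect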
Target sequence (Q15139 whole entry, looked up): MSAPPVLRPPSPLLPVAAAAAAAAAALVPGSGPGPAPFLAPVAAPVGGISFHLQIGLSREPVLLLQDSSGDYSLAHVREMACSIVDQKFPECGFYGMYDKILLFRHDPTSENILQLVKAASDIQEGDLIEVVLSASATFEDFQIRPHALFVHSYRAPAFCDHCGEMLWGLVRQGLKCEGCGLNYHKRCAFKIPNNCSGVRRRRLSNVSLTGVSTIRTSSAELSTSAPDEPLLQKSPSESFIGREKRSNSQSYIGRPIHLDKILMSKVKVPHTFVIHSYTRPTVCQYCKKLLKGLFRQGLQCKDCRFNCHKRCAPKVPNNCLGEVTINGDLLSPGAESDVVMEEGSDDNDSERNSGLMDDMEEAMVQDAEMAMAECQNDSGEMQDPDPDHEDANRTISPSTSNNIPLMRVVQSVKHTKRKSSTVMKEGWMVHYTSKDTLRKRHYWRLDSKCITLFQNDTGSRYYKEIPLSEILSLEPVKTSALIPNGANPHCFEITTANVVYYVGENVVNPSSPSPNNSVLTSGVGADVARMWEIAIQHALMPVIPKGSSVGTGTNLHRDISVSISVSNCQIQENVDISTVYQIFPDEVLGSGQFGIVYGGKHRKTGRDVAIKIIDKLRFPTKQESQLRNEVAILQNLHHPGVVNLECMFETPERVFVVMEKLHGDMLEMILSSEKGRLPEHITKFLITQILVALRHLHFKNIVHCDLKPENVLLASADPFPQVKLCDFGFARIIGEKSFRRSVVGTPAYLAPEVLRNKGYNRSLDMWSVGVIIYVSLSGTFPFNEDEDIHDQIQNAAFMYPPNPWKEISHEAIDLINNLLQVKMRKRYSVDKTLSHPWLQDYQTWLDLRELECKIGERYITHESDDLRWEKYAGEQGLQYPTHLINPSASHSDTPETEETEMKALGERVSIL
INS promoter inh cell count = also measured in INS promoter inh; calls as there; normalized cell count, %; measured here: cell count, toxicity; reference of the scale not given here;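 cells exposed to compound for 48 h; stained nuclei by imaging scaled within each plate; lower means fewer cells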
HSV replic up primary fold = further read-out of HSV replic up, marked with its call; fold increase; compound at 10 µM; measured here: primary screen fold increase 10 uM; tested in PC3 cells;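 GFP signal in the first replicate; 1 = infected wells without compound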
* = called active by the depositor; i = inactive; . = no result given.

A first look:
SMILES | GALR2 agonist | RGS16-Gao | HSV replic up | HSV replic up primary fold | INS promoter inh | INS promoter inh cell count | PKD1 kinase inh
O=C(c1cccs1)N(Cc1ccco1)C1CCS(=O)(=O)C1 (configuration not stated) | 0.4 | 99 | i | 1.4 | 3 | 98 | -4
O=C(Nc1ccccc1N1CCCCC1)c1ccc(-c2cccc(Cl)c2)o1 | 1.1 | 106 | i | 1 | 6 | 138 | -3
COc1cc(CN2CCNC(=O)C2CC(=O)NCCc2ncccc2C)cc(OC)c1 (configuration not stated) | . | 93 | i | 1 | . | . | 2
COc1cc(-c2nnc(-c3ccccc3)o2)cc(OC)c1OC | -0.7 | . | i | 0.97 | 69 | 128 | 7
CC1(C)C(=O)OC(/C=C/c2cccc([N+](=O)[O-])c2)C(C)(C)C1=O (configuration not stated) | . | 103 | i | 1.1 | . | . | .
Cc1ccc2nc(SCC(=O)N3CCN(c4ccccc4)CC3)[nH]c2c1 | . | 113 | i | 0.9 | . | . | .
N#Cc1cc2ccccc2nc1N | . | 99 | i | 0.94 | . | . | -3
O=C(CN1CCC(NC(=O)Nc2ccccc2-c2ccccc2)CC1)NCc1ccco1 | -2.4 | 103 | i | 1 | 13 | 123 | 12
COc1cc(/C=N/Nc2ccccc2)ccc1OC(=O)c1cccs1 | -1.7 | 90 | i | 0.96 | . | . | -8
Cc1ccc(S(=O)(=O)C2(C(=O)N(C)C3CCCCC3)CC2)cc1 | 0.1 | 101 | i | 0.88 | 27 | 78 | -18
O=C(Nc1ccccc1N1CCN(C(=O)c2ccccc2)CC1)c1ccc2c(c1)OCO2 | -0.5 | 99 | i | 0.76 | . | . | -9
Nc1ncnc2c1nc(SCCO)n2Cc1ccccc1 | . | 93 | i | 0.8 | . | . | -6
CCOC(=O)c1[nH]c(C)c(C(=O)NC2CCN(C(=O)OCC)CC2)c1C | -0.3 | 106 | i | 1 | . | . | 3

Main list (from the top)
SMILES | GALR2 agonist | RGS16-Gao | HSV replic up | HSV replic up primary fold | INS promoter inh | INS promoter inh cell count | PKD1 kinase inh
O=C(c1cccs1)N(Cc1ccco1)C1CCS(=O)(=O)C1 (configuration not stated) | 0.4 | 99 | i | 1.4 | 3 | 98 | -4
O=C(Nc1ccccc1N1CCCCC1)c1ccc(-c2cccc(Cl)c2)o1 | 1.1 | 106 | i | 1 | 6 | 138 | -3
COc1cc(CN2CCNC(=O)C2CC(=O)NCCc2ncccc2C)cc(OC)c1 (configuration not stated) | . | 93 | i | 1 | . | . | 2
COc1cc(-c2nnc(-c3ccccc3)o2)cc(OC)c1OC | -0.7 | . | i | 0.97 | 69 | 128 | 7
CC1(C)C(=O)OC(/C=C/c2cccc([N+](=O)[O-])c2)C(C)(C)C1=O (configuration not stated) | . | 103 | i | 1.1 | . | . | .
Cc1ccc2nc(SCC(=O)N3CCN(c4ccccc4)CC3)[nH]c2c1 | . | 113 | i | 0.9 | . | . | .
N#Cc1cc2ccccc2nc1N | . | 99 | i | 0.94 | . | . | -3
O=C(CN1CCC(NC(=O)Nc2ccccc2-c2ccccc2)CC1)NCc1ccco1 | -2.4 | 103 | i | 1 | 13 | 123 | 12
COc1cc(/C=N/Nc2ccccc2)ccc1OC(=O)c1cccs1 | -1.7 | 90 | i | 0.96 | . | . | -8
Cc1ccc(S(=O)(=O)C2(C(=O)N(C)C3CCCCC3)CC2)cc1 | 0.1 | 101 | i | 0.88 | 27 | 78 | -18
O=C(Nc1ccccc1N1CCN(C(=O)c2ccccc2)CC1)c1ccc2c(c1)OCO2 | -0.5 | 99 | i | 0.76 | . | . | -9
Nc1ncnc2c1nc(SCCO)n2Cc1ccccc1 | . | 93 | i | 0.8 | . | . | -6
CCOC(=O)c1[nH]c(C)c(C(=O)NC2CCN(C(=O)OCC)CC2)c1C | -0.3 | 106 | i | 1 | . | . | 3
COc1ccc(NC(=S)N/N=C2\CC(C)(C)Oc3ccc(OC)cc32)cc1 | 1.6 | 98 | i | 1 | 52 | 115 | 0
CC1CCN(C(=O)c2ccc(C(=O)N3CCC(C)CC3)cc2)CC1 | -2.6 | . | . | . | 11 | 145 | -3
O=C(COc1cc(O)c2c(=O)cc(-c3ccccc3)oc2c1)c1ccc(F)cc1 | -2.2 | 109 | i | 0.89 | 3 | 85 | -3
Cc1ccc(/C=C/C(=O)c2ccccc2O)cc1 | . | 105 | i | 1 | . | . | .
N#Cc1ccccc1CSc1nc(N2CCCCC2)nc(N2CCCCC2)n1 | 1.5 | 95 | i | 0.88 | -16 | 24 | 2
O=C1c2cccc3c(Cl)ccc(c23)C(=O)N1O | -2.1 | 109 | i | 0.72 | . | . | 16
CC(Cc1ccccc1)C(=O)N[C@@H](CO)Cc1ccccc1 (some centres not stated) | 23* | 96 | i | 0.99 | -57 | 86 | -1
CCN(CC)C(=O)CSc1nnc(CNc2ccc(F)cc2)n1Cc1ccco1 | 1.7 | 101 | i | 0.98 | . | . | 0
C[C@@H](C(=O)O)[C@@H]1C[C@@]1(C)[C@@H](NC(=O)OCc1ccccc1)c1ccccc1 | -3.0 | 110 | i | 0.74 | -5 | 52 | -16
O=C1CSC(c2cccnc2)N1CC1CC1 (configuration not stated) | . | 100 | i | 0.99 | . | . | .
Cc1ccc(C2=NC(C(F)(F)F)(C(F)(F)F)c3c(n(-c4ccc(F)cc4)c(=O)[nH]c3=O)N2)cc1 | 0.4 | 105 | i | 0.98 | -8 | 108 | -4
Cc1cccc(-c2nc(C#N)c(NCC3CCCO3)o2)c1 (configuration not stated) | . | 101 | i | 1 | . | . | .
Cc1ccc(/C=C/S(=O)(=O)Nc2ccc(C)cc2)cc1 | . | 102 | i | 1 | -44 | 74 | -2
Cn1c(=O)cc(SCC(=O)NCc2ccco2)c2ccccc21 | -2.7 | 116 | i | 0.83 | . | . | -3
S=c1[nH]nc(-c2ccccn2)n1/N=C/c1ccc(-c2ccccc2Br)o1 | . | 95 | i | 0.87 | . | . | -7
Cc1c(NC(=O)C(C)N2C(=O)C3CCCCC3C2=O)c(=O)n(-c2ccccc2)n1C (configuration not stated) | . | 99 | i | 1.1 | 11 | 75 | -1
O=C(CN1C(=O)/C(=C/c2ccccc2)SC1=S)Nc1ncc(Cc2ccccc2)s1 | 0.3 | 105 | . | . | 16 | 98 | 2
O=C1NC(c2ccc(-c3ccccc3[N+](=O)[O-])o2)C(C(=O)c2ccc(F)cc2)C(O)(C(F)(F)F)N1 (configuration not stated) | 1.2 | 105 | i | 1 | . | . | -8
Cc1c(CN2CCC(CO)(CCOc3ccccc3)CC2)[nH]c2c(Cl)cccc12 | . | 102 | i | 0.6 | . | . | -1
CCCN(CCC)C1=N/C(=C\c2ccco2)C(=O)N1c1ccccc1 | 4.3 | 104 | i | 1.2 | 0 | 64 | -2
CCNC(=O)COC(=O)/C=C/c1ccccc1[N+](=O)[O-] | -3.4 | 103 | i | 1.1 | -16 | 148 | 1
O=C(c1ccccc1)c1nc2c(n1O)CCCCC2 | . | 94 | i | 1 | -106 | 180 | -1
C/C(=N\OCC(=O)Nc1ccc(Br)cc1)c1cccs1 | . | 100 | i | 1 | . | . | -6
O=Nc1c(O)n(Cc2ccc(Cl)c(Cl)c2)c2ccccc12 | -7.2 | 101 | i | 1 | 8 | 82 | 0
CCC(=O)N1CCc2cc(Br)cc(S(=O)(=O)NCc3ccco3)c21 | -0.9 | 104 | i | 1.1 | . | . | 9
CCN(C(=O)Cc1c(C(=O)O)[nH]c2ccccc12)c1ccc(OC)cc1 | . | 105 | i | 1 | 36 | 107 | -5
CC(C)c1nc2sc3c(=S)nc[nH]c3c2c2c1CCC2 | . | 93 | i | 1 | . | . | .
CCn1c(SCc2nc3ccccc3c(=O)[nH]2)nc2ccccc21 | . | 106 | i | 1 | . | . | 4
O=C(Nc1cccc(OC(=O)c2cccnc2)c1)c1cccnc1 | -2.8 | 103 | . | . | 50 | 122 | -5
COC(=O)c1c(NC(=O)Nc2ccc(Cl)cc2)sc(C)c1C | -2.5 | 104 | . | . | . | . | -4
COc1ccc(Nc2nnc(SCc3cc(=O)n4ccsc4n3)s2)cc1 | -4.8 | 98 | i | 0.98 | 26 | 156 | 0
O=C(NNC(=O)c1ccccn1)c1cccc([N+](=O)[O-])c1 | . | 108 | i | 0.96 | 55 | 158 | -1
CC(C)Cn1c(N)c(C(=O)CSc2ncnc3sc4c(c23)CCCC4)c(=O)n(C)c1=O | -1.0 | 91 | i | 0.91 | . | . | -9
COc1ccc(-c2nnc(SCC(=O)c3ccco3)n2-c2ccccc2)cc1 | -2.7 | 99 | i | 1 | 28 | 90 | -4
Cc1ccccc1NN=Nc1nc2c([nH]1)c(=O)n(C)c(=O)n2C | 0.2 | 99 | i | 1 | . | . | -8
COc1ccccc1CNS(=O)(=O)c1c(C)noc1C | -2.8 | 102 | i | 0.99 | . | . | 0
CCn1cc([N+](=O)[O-])c(C(=O)Nc2ccn(Cc3ccccc3F)n2)n1 | -3.4 | 105 | i | 0.92 | -10 | 81 | -4
Cc1cc(=O)[nH]c(-n2nc(C)c(Oc3ccccc3O)c2C)n1 | 32* | 100 | i | 0.91 | 39 | 56 | -18
CC1CCN(CCCn2c(SCC(=O)Nc3ccccc3Cl)nc3ccccc3c2=O)CC1 | . | 265 | i | 0.73 | -80 | 67 | 0
CN(Cc1cnccn1)Cc1nc(Cc2ccccc2F)no1 | . | 104 | i | 1.1 | . | . | 5
CCCC1C(C#N)=C(N)Oc2n[nH]c(C(C)(C)C)c21 (configuration not stated) | -0.1 | 103 | i | 1.1 | . | . | -12
CCOC(=O)C1(Cc2ccc(OC)cc2)CCN(C(=O)[C@@H]2CCCN2C(C)=O)CC1 | . | 93 | i | 0.92 | . | . | .
COc1ccc(C2CC(c3ccc(Cl)cc3)=NN2C(=O)c2cccc([N+](=O)[O-])c2)cc1 (configuration not stated) | 0.4 | 99 | i | 1.1 | . | . | -8
Clc1ccc(CN2CCN(c3ncnc4scc(-c5cccs5)c34)CC2)cc1 | -1.6 | 96 | i | 0.77 | -69 | 155 | -5
COc1ccc(OC)c2[nH]c(=O)c(CCNC(C)=O)cc12 | -0.7 | 105 | i | 1 | . | . | -6
COc1ccc(OCc2ccc(C(=O)NN)cc2)cc1 | -0.2 | 91 | i | 0.96 | 24 | 93 | -3
CC(=O)NCC(=O)N[C@@H](CC(=O)OCc1ccccc1)C(=O)OCc1ccccc1 | . | 90 | i | 1 | . | . | .

The list goes on.
SMILES | GALR2 agonist | RGS16-Gao | HSV replic up | HSV replic up primary fold | INS promoter inh | INS promoter inh cell count | PKD1 kinase inh
CC(c1ccccc1)N1CC(C(=O)O)CC1=O (configuration not stated) | . | 100 | i | 1.1 | 6 | 93 | 2
Cc1nc(Cl)c(C(=O)NCc2ccccc2)c(C)c1Cl | . | 101 | i | 0.82 | . | . | -8
O=C(Nc1ccc(Cl)cc1C(=O)N1CCOCC1)c1ccco1 | -2.1 | 103 | i | 0.78 | 56 | 53 | -4
COc1ccccc1N1CCN(C(=O)CSc2nc3ncnc(N)c3[nH]2)CC1 | -0.4 | 102 | i | 0.86 | -7 | 102 | -10
CN(c1cccc(NC(=O)CN(c2cccc(F)c2)S(C)(=O)=O)c1)S(C)(=O)=O | . | 104 | i | 1 | . | . | -6
S=C(NCCc1ccccc1)Nc1ccccn1 | -0.4 | 99 | i | 0.86 | -20 | 115 | -6
CCCCN1C(=O)CC(C(=O)OCC)=C1C | . | 99 | i | 0.84 | . | . | .
CC1C(=O)C(C)(C)C(=O)OC1c1ccccc1 (configuration not stated) | . | 100 | i | 1.1 | . | . | .
COC(=O)c1ccc(C23CC4(C2)[C@H](CN(Cc2cccnc2)[C@@H]4c2ccccc2)C3c2ccc(C(F)(F)F)cc2)cc1 (some centres not stated) | . | 98 | i | 0.79 | . | . | .
COC(=O)Nc1ccc(Cn2cc(C(F)(F)F)ccc2=O)cc1 | . | 101 | i | 1 | . | . | 1
Cc1cc(C(=O)O)ccc1-n1c(C)cc(/C=C(/C#N)C(=O)Nc2ccccc2)c1C | . | 97 | i | 1.1 | . | . | -1
CCOC(=O)c1sc2nc3n(c(=O)c2c1C)CCC3 | 0.2 | 105 | i | 1 | . | . | -1
COC(=O)COc1cc(Br)c(/C=C2/SC(=O)N(CC(=O)N3CCCC3)C2=O)cc1OC | -1.6 | 98 | i | 0.98 | . | . | 4
COc1ccccc1C(=O)NCc1n[nH]c(=S)n1Cc1ccccc1 | . | 93 | i | 0.96 | . | . | -4

Limited to RGS16-Gao and INS promoter inh (2 entries from above):
SMILES	RGS16-Gao	INS promoter inh
N#Cc1cc2ccccc2nc1N	99	.
O=C(CN1CCC(NC(=O)Nc2ccccc2-c2ccccc2)CC1)NCc1ccco1	103	13
